# Screens from PubChem.
# Env fusion inh: blocks HIV Env-driven cell-cell fusion. HeLa-JRFL Env/CEM21 cell fusion, luciferase. hit rate 1.1% among 360,000. inhibition, % at 12.3 µM;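 active means mean replicate inhibition score of at least 50 and every replicate individually at or above 50; inconclusive means only one of the two criteria met; inactive means mean below 50 and not all replicates reaching 50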;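 further: 0% = plate neutral controls and 100% = maraviroc near 300 nM; one replicate is shown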
# MT1-MMP act inh: blocks activation of human MT1-MMP; HT1080 RFP-PRO-GFP cells, GFP/RFP ratio fluorescence, overnight; percent of plate control window, DMSO zero; P50281; hit rate 0.061% among 360,000; AID 651647; GFP/RFP ratio change, % at 20 µM;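 active means GFP/RFP ratio change of at least 30% with cell ATP level not reduced by more than half and red fluorescence within 50% of control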; further: strong numbers were not always called active
#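 Material: RFP-PRO-GFP reporter HT1080 cells. Dosing: single-point 20 µM compound, 1% DMSO. Controls: DMSO and RFP-L50D-GFP cell wells. Timing: cells overnight before dosing, compound overnight, 37 °C, 5% CO2. Measure: GFP/RFP fluorescence ratio.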
# MT1-MMP act inh RFP: also measured in MT1-MMP act inh; calls as there; RFP signal change, %; measured here: RFP expression control read;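 0 = vehicle wells; hits needed this value within 50% of zero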
# * hit, by the source's call; ? = inconclusive. Not all compounds are listed; the hit share may differ from the screen's.
Env fusion inh	MT1-MMP act inh	MT1-MMP act inh RFP	Molecule
-1	5	-8	O=C1NC[C@H](CCCCN2C[C@H](Cc3ccccc3)N(CC3CCCCC3)C(=O)C2=O)N(CCC2CCCCC2)C1=O
-3	-2	-1	CCC(C(=O)NC(C)(C)C)n1c(-c2ccc3c(c2)OCO3)nc2ccccc21 (stereo unspecified)
6	4	6	C[C@@H](NC(=O)[C@@H]1CCCN1C(=O)[C@@H]1CCCN1C(=O)c1cccc(Cl)c1)c1ccccc1
-4	-1	-6	COC(=O)c1ccc2nc(-c3ccc(F)cc3)c(Cc3ccc(C)cc3)n2c1
-291	3	-7	COc1ccc(C(=O)/C=C2\C(=O)Nc3ccc(Br)cc32)cc1
1	0	5	Cc1ccc(S(=O)(=O)N[C@@H](C)CO)cc1
-15	-3	1	O=C(C=C(O)c1ccc(Cl)cc1)C(=O)NNC(=O)C(O)(c1ccccc1)c1ccccc1
-38	5	7	CCN(CC)CCN(C)C(c1cc2ccccc2o1)c1nnnn1C(C)(C)C (stereo unspecified)
-15	4	1	N#CC1(Nc2ccc(C(=O)O)cc2)CCCC1
-15	6	8	COC(=O)CCCn1cc(CN2CC(N3CCN(Cc4ccccc4F)CC3)CS2(=O)=O)nn1 (stereo unspecified)
25	21	1	COc1cc2c(c(OC)c1OC)-c1ccc(SC)c(=O)cc1C(NC(=O)C(F)(F)F)CC2 (stereo unspecified)
-4	-6	2	NC(N)=NCCCS(=O)(=O)Nc1ccc(Nc2c3ccccc3nc3cc([N+](=O)[O-])ccc23)cc1
11	-2	0	O=C1Nc2cnc(Cl)nc2Nc2ccccc21
2	-4	6	Cc1c([N+](=O)[O-])oc2c1C(=O)NCCC2
15	0	3	COc1ccc(S(=O)(=O)NC(=O)C2(C)CCN2C(=O)C2(c3ccc(Cl)cc3)CCC2)cc1 (stereo unspecified)
0	1	4	CCCCNC(=O)C1C(c2ccc(OC)cc2)=Nc2ccccc2N1C(=O)c1ccncc1 (stereo unspecified)
?	-6	-16	CC(C)(C)NC(=O)C(c1ccccc1)n1c(=O)c(-c2ccccc2)nc2ccccc21 (stereo unspecified)
-1	-2	-1	CSCCC(NC(=O)c1ccccc1Cl)C(=O)Nc1ccncc1 (stereo unspecified)
-52	2	-2	CC(C)CN(C(=O)COC(=O)/C=C/c1ccc(Cl)c(Cl)c1)c1c(N)n(Cc2ccccc2)c(=O)[nH]c1=O
17	-10	-1	COc1ccccc1CC(=O)NN1C(=O)NC2(CCC(C)CC2)C1=O (stereo unspecified)
-14	-9	6	CC(C)(C)NC(=O)C(c1cccc2ccccc12)n1c(=O)c(-c2ccco2)nc2ccccc21 (stereo unspecified)
8	2	-2	C#CCNC(=O)C[C@@H]1C[C@@]2(C(=O)OC)CCCCC=C2N(CCCCCCCC)C1=O
?	10	0	CCOC(=O)[C@]12CCC=C1N(Cc1ccccc1)C(=O)[C@H](CC(=O)NCc1ccc(OC)c(OC)c1)C2
-27	2	1	CCOc1ccc2nc(NC(=O)Cn3c(C)csc3=O)sc2c1
6	5	3	OC[C@@H]1CN(CCN2CCOCC2)C[C@H](n2cnc3c(NCc4ccco4)ncnc32)O1
-15	0	5	O=C(NCc1ccccn1)[C@@H]1CCCN1C(=O)[C@@H]1CCCN1C(=O)c1cccs1
8	-4	7	CC1(C)C(=O)C=CC(=O)C(C)(C)C(=O)C=CC(=O)C(C)(C)C2=CC=C(O2)C(C)(C)C(=O)C=CC1=O
-6	-2	-2	CS(=O)(=O)N1Cc2cc(C(=O)NCC3CC3)nc(-c3cccc(-c4cccnc4)c3)c2[C@@H]1CCO
11	-3	10	CCCCCNC(=O)C(c1cc2ccccc2o1)n1c(=O)c(-c2ccco2)nc2ccccc21 (stereo unspecified)
-21	1	-2	Cc1ccccc1-c1cnc(C(O)c2ccc(C(C)(C)C)cc2)[nH]1 (stereo unspecified)
35	-9	-6	Cc1c2cnccc2c(C)c2c1oc1ccccc12
2	1	1	CC(C)Oc1ccc2ccccc2c1CNC[C@H]1O[C@@H](n2ccc(N)nc2=O)[C@H](O)[C@@H]1O
1	2	7	CCOC(=O)[C@]12CCC=C1N(Cc1ccco1)C(=O)[C@H](CC(=O)NCc1cccs1)C2
-29	0	0	O=C(c1cccs1)N1C[C@@H](O)[C@H](n2cc(C3CC3)nn2)C[C@@H]1c1ccc(Cl)cc1
-18	2	-2	CCCc1nnn(S(=O)(=O)c2ccc([N+](=O)[O-])cc2)c1CCC
3	4	13	C[C@@H]1COc2cc(N3CCC[C@H]3CO)ccc2S(=O)(=O)N1

# Part of the list above in order of molar mass, smallest number first:
Env fusion inh	MT1-MMP act inh	MT1-MMP act inh RFP	Molecule
-29	0	0	O=C(c1cccs1)N1C[C@@H](O)[C@H](n2cc(C3CC3)nn2)C[C@@H]1c1ccc(Cl)cc1
1	2	7	CCOC(=O)[C@]12CCC=C1N(Cc1ccco1)C(=O)[C@H](CC(=O)NCc1cccs1)C2
-6	-2	-2	CS(=O)(=O)N1Cc2cc(C(=O)NCC3CC3)nc(-c3cccc(-c4cccnc4)c3)c2[C@@H]1CCO

# The listing continues.
Env fusion inh	MT1-MMP act inh	MT1-MMP act inh RFP	Molecule
-27	2	1	CN(CCO)c1cccc2c1S(=O)(=O)N[C@@H](Cc1ccccc1)CO2
4	5	5	COc1ccc(C(=O)NCCNc2nc3cc(C)cc(C)c3cc2C#N)nc1
19	1	-9	Oc1ccc(C[C@@H](CN2CCCC2CN2C(=S)NC[C@@H]2Cc2ccccc2)N2C[C@H](Cc3ccccc3)N(CC3CCCCCC3)C2=S)cc1 (stereo partly specified)
-21	3	4	COCCNC(=O)C1CCCN(Cc2ccc(C#N)cc2)CC1 (stereo unspecified)
-41	9	6	O=C1C=C(OCCF)CC(c2cccc([N+](=O)[O-])c2)O1 (stereo unspecified)
2	5	5	COC(=O)[C@]12CCCCC=C1N(Cc1ccco1)C(=O)[C@H](CC(=O)N1CCN(C(=O)c3ccco3)CC1)C2
-5	-5	3	COc1cc(C=CC(=O)OCC=Cc2ccc3c(c2)OCO3)cc(OC)c1OC
-12	2	-13	CC1CCc2c(sc(NC(=O)CSc3nc(N)cc(=O)[nH]3)c2C(N)=O)C1 (stereo unspecified)
6	-2	7	COC(=O)C[C@@H]1CC[C@H](NS(=O)(=O)c2cccc(F)c2)[C@@H](CO)O1
6	-3	-9	CCCCCCCCN1C(=O)[C@H](CC(=O)NCc2cccc(C(F)(F)F)c2)C[C@@]2(C(=O)OC)CCCCC=C12
-7	3	4	CCOC(=O)N1CCN(C(=O)C[C@@H]2C[C@@]3(C(=O)OCC)CCC=C3N(Cc3ccc4c(c3)OCO4)C2=O)CC1
-49	-2	-6	CC(C)C[C@H]1CNC(=O)C(=O)N1C[C@@H]1CCCN1C[C@H](Cc1ccccc1)N1C[C@H](CC(C)C)N(CCc2ccccc2)C(=O)C1=O
4	8	2	COc1ccc(CN2C(=O)C(CC(=O)NCCN3CCOCC3)CC(C(=O)N3CCCCCC3)=C2C)cc1 (stereo unspecified)
-10	8	-1	O=S1(=O)N[C@H](Cc2ccccc2)COc2cc(N3CCN(Cc4ccccc4F)CC3)ccc21
-8	4	1	COc1ccccc1NC(=O)N(O)C1(C#N)CCCCC1
-31	0	0	CCOC(=O)[C@]12CCCC=C1N(Cc1ccc3c(c1)OCO3)C(=O)[C@H](CC(=O)NCCCN1CCCC1=O)C2
-39	-4	-7	COC(=O)C1=CN(c2ccc(OC)cc2)C(N)=C(C#N)C1c1cccc2ccccc12 (stereo unspecified)
19	4	-7	O=C(Nc1c(Br)cc2c(c1Br)Cc1cc([N+](=O)[O-])ccc1-2)C(Cl)Cl
1	5	-1	COc1ccc(Cn2cc(CN(C)C3CN(Cc4cn(Cc5ccc(OC)cc5)nn4)S(=O)(=O)C3)nn2)cc1 (stereo unspecified)
-52	-4	-13	COc1cccc(C2c3cc4c(cc3OC(N3CCOCC3)C2C)OCO4)c1O (stereo unspecified)
0	-2	-1	O=C(Nc1nccs1)[C@@H]1CCCN1S(=O)(=O)c1ccccc1F
-8	3	5	CC(C)(C)c1cc(C2COC(=O)COCCOCC(=O)OCCOCCO2)cc(C(C)(C)C)c1O (stereo unspecified)
-4	5	0	O=C(NCCN1CCC(n2c(=O)[nH]c3ccccc32)CC1)c1cccc2c1-c1ccccc1C2=O
11	2	1	C[C@@H]1O[C@H](C2CCCC2)CC2=C1C(=O)OC(C)(C)O2
-236	-4	-2	Nc1ccccc1C=C1Cc2ccccc2C1=O
-88	11	-4	Cc1c(C=NNc2ccccc2)[nH]c(=O)[nH]c1=O
-2	0	6	CCCCNc1c(-c2cccnc2)nc2nc(C)cc(C)n12
-27	-8	4	Cc1cccc(C)c1NC(=O)C(c1ccc(-c2ccccc2)cc1)n1c(=O)c(-c2ccco2)nc2ccccc21 (stereo unspecified)
8	7	-3	Nc1[nH]c(C(=O)c2ccc(Br)cc2)c(-c2ccc(Br)cc2)c1C(=O)NCCc1c[nH]c2ccccc12
-349	9	-9	N#Cc1c(-c2ccc(Cl)cc2)c(-c2ccc(Cl)cc2)nn(CCOC(=O)CCC(=O)O)c1=O
9	-1	-2	CC(=O)Nc1c(Br)cc2c(c1Br)C(=O)c1ccccc1-2
-13	1	6	CCC(C)CN1C(=O)CN(S(C)(=O)=O)CC1(C)C(=O)Nc1c(C)cccc1C (stereo unspecified)
-11	0	4	Cc1nccn1-c1ccc(NC(=O)[C@H]2O[C@@H](n3ccc(=O)[nH]c3=O)[C@H](O)[C@@H]2O)cc1
-64	-2	1	COc1ccc2c3c(ccc2c1)C(=O)/C(=C/O)CC3
-13	6	3	O=C(O)CC/C(=C/c1cccc(NC(=O)c2ccccc2Cl)c1)c1nc2ccccc2s1
13	-13	-14	CCCCCCCCN1C(=O)[C@H](CC(=O)NCCCCc2ccccc2)C[C@@]2(C(=O)OC)CC(C)(C)CC=C12

# Only MT1-MMP act inh RFP (seven entries from above):
compound	MT1-MMP act inh RFP
Cc1cccc(C)c1NC(=O)C(c1ccc(-c2ccccc2)cc1)n1c(=O)c(-c2ccco2)nc2ccccc21 (stereo unspecified)	4
Nc1[nH]c(C(=O)c2ccc(Br)cc2)c(-c2ccc(Br)cc2)c1C(=O)NCCc1c[nH]c2ccccc12	-3
N#Cc1c(-c2ccc(Cl)cc2)c(-c2ccc(Cl)cc2)nn(CCOC(=O)CCC(=O)O)c1=O	-9
CC(=O)Nc1c(Br)cc2c(c1Br)C(=O)c1ccccc1-2	-2
CCC(C)CN1C(=O)CN(S(C)(=O)=O)CC1(C)C(=O)Nc1c(C)cccc1C (stereo unspecified)	6
Cc1nccn1-c1ccc(NC(=O)[C@H]2O[C@@H](n3ccc(=O)[nH]c3=O)[C@H](O)[C@@H]2O)cc1	4
COc1ccc2c3c(ccc2c1)C(=O)/C(=C/O)CC3	1

# Next part.
Env fusion inh	MT1-MMP act inh	MT1-MMP act inh RFP	Molecule
-29	-7	-12	CCOC(=O)[C@]12CCCC=C1N(Cc1ccc(Cl)cc1Cl)C(=O)[C@H](CC(=O)N1CCC(c3ccccc3)CC1)C2
-33	1	0	COc1ccc(CN2C(=O)COc3ccccc3C2c2nc3ccccc3[nH]2)cc1 (stereo unspecified)
-41	2	1	O=C1NC[C@@H](CCCCN2C[C@H](Cc3ccc(O)cc3)N(CCc3ccc(O)cc3)C(=O)C2=O)N(CC2CCCCC2)C1=O
-22	1	2	O=c1cc(-c2ccccc2)oc2ccc(Cl)cc12
13	0	-4	O=C(c1cc2nc(-c3ccccc3)cc(C(F)(F)F)n2n1)N1CCCC1
13	-4	-3	COc1ccc(C(C(=O)NC(C)(C)C)n2c(-c3ccc(C(F)(F)F)cc3)nc3ccccc32)cc1 (stereo unspecified)
-14	-3	-1	COc1ccc(CCNC(=O)CN(c2ccccc2)S(=O)(=O)c2ccccc2)cc1
-26	4	-5	CCCCCC(=O)N1C[C@@H](O)[C@H](n2cc(-c3ccc(F)cc3)nn2)C[C@@H]1c1ccc(OC)cc1
8	1	-12	O=[N+]([O-])c1cnccc1-n1nnc2ccccc21
-26	-1	1	O=C(C(=O)N1CCN(c2ccccc2F)CC1)c1ccccc1
-7	-4	0	O=C(CCl)N(O)c1ccc(C=Cc2ccccc2)cc1
-8	-4	3	O=C(Nc1c(-c2ccccc2)[nH][nH]c1=O)c1ccccc1
21	2	-6	Cc1ccc(C)c(OCCC(=O)Nc2cc(S(=O)(=O)N3CCCCC3)ccc2C)c1
?	0	-3	COC(=O)[C@@]12C[C@@H](CC(=O)NCc3ccccc3)C(=O)N(CCc3ccc(OC)c(OC)c3)C1=CCC(C)(C)C2
6	16	-4	COc1ccc2nc(NN=C(C)c3ccccn3)cc(C)c2c1
12	0	2	Nc1ccc(CCCC(=O)NCc2cccnc2)cc1
-6	-5	-3	CC(=O)OC1CCC2(C)C(CCC3C2CC(=NO)C2(C)C(C(C)OC(C)=O)CCC32)C1 (stereo unspecified)
13	2	9	CCCCn1nnnc1C(c1ccccc1)N1CCN(C(=O)c2ccco2)CC1 (stereo unspecified)
-4	-3	-1	Cc1ccc(C(=O)NCC(=O)N2CCCN(S(=O)(=O)c3ccc(C)cc3)CC2)cc1
-15	-1	1	O=C(C[C@H]1CC[C@@H]2[C@H](COC[C@H](O)CN2Cc2cccc(F)c2)O1)NCc1cccc(F)c1
3	-3	-6	COc1ccc(C(=O)c2ccccc2C(=O)c2ccccc2)cc1
0	-2	2	Cc1cccc(C)c1NC(=O)C1(C)CSCC(=O)N1CCCN1CCOCC1 (stereo unspecified)
22	-4	-24	O=C1c2c(-c3ccc(Br)cc3)noc2CCN1Cc1cn(C2CCCC2)nn1
19	-5	-12	COc1ccccc1CCn1cnc(Cc2cccc(F)c2)c1C(C)C
